FGF22 binding = binders of human FGF22 protein, primary screen, FGF22 synaptogenesis inhibitor project, biophysical, thermal shift, single point; 340,000 tested, 1.5% active; calls only at 9.99 µM; recombinant FGF22 thermal shift, SYPRO orange fluorescence; percent of sucrose octasulfate shift, DMSO zero; AID 651658, 2012;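 active means melting point raised past a set limit in the mean and every replicate; inconclusive means no clear call; three in four hits are not shown here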
Target sequence (Q9HCT0 whole entry, looked up): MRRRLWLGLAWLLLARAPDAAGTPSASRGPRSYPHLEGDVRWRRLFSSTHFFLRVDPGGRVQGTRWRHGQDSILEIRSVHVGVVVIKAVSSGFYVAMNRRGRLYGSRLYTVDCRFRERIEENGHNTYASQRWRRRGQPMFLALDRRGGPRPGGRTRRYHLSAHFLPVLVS
ALR H2O2 inh = inhibitors of human ALR sulfhydryl oxidase, primary screen, biochemical, H2O2 detection, HRP-luminol luminescence, single point; FAD-linked sulfhydryl oxidase ALR (Homo sapiens), P55789; 290,000 tested, 3.8% active; AID 485317, 2010; inhibition, % (no concentration beside the values); purified ALR, DTT oxidation;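 active means mean and each replicate at 75% or more; inconclusive means only one of the two met; inactive means neither met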;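 further: stock transfer was 7.5 nL into about 7.5 µL; 0% = neutral wells and 100% = wells with inactivated enzyme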
Target sequence (P55789 whole entry, looked up): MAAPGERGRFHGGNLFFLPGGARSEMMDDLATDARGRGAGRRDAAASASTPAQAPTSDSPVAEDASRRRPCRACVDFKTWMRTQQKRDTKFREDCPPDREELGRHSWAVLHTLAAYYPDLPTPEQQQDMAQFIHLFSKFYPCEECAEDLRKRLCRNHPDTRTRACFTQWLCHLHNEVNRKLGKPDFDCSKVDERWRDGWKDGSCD
Calb FLC = C. albicans growth inhibition with fluconazole, primary screen, CaCi-2 strain, Alamar Blue fluorescence; AID 1979, 2009; growth inhibition, % (concentration not given with the values); 300,000 tested, 0.57% active; C. albicans CaCi-2 (fluconazole-resistant clinical isolate) + fluconazole, 48 h;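 active means most replicates above 75%; inconclusive means exactly half above 75%; inactive means most below 75%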;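 further: all wells also contain fluconazole at 8 µg/ml as a sub-toxic cotreatment; 0% = median of DMSO wells and 100% = median of geldanamycin control wells; wells of about 8 µL received 7.5 nL stock; the first replicate is given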
MLL AF4-AF9 inh = inhibitors of AF4 peptide binding to AF9, primary screen, biochemical, AlphaScreen, biotin-AF4 peptide, FLAG-AF9, single point. inhibition, % at 10 µM. AID 651704, 2012. Protein AF-9 (Homo sapiens), P42568. 350,000 tested, 0.47% active;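 active means every replicate reaching a set inhibition limit, whatever the replicate mean, cut at about 25% in these data; inconclusive means mean inhibition reaches that limit but some replicates miss it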;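 further: 0% = plate neutral control median and 100% = total signal loss; the record names both 10 and 1 µM as test concentration; the first replicate is given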
Target sequence (P42568 whole entry, looked up): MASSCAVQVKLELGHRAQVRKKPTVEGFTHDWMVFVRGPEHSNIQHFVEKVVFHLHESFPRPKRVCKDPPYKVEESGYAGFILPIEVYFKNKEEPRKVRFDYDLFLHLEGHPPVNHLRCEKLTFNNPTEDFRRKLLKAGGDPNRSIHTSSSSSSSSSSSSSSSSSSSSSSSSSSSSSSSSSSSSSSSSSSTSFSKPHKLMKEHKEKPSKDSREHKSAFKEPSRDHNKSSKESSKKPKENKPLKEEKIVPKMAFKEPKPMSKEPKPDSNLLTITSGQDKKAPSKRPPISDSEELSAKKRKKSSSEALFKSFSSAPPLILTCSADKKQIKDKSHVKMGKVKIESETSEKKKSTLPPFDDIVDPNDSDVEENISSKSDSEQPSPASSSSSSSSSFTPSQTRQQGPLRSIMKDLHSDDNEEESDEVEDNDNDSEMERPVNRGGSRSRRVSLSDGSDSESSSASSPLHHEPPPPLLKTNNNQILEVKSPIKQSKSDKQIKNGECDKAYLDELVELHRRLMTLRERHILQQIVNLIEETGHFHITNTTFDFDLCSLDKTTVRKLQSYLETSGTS
RanGTP-Imp inh = inhibitors of RanGTP-importin-beta interaction, primary screen, biochemical, FRET, CFP-Ran, YFP-importin-beta, homogeneous | Ran GTPase (GTP-bound) - importin-beta complex | cell-free CFP-Ran/YFP-importin-beta FRET ratio | inhibition, % (no concentration beside the values) | 300,000 tested, 1.1% active;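 active means most replicates above 15%; inconclusive means exactly half above 15%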;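 further: 0% = DMSO wells and 100% = Ran loaded with GDP instead of GTP; wells of about 40 µL received 100 nL stock; the first replicate is given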
Beta cell apopt = inhibitors of cytokine-induced beta cell apoptosis, primary screen, luminescence. 300,000 tested, 0.8% active. INS-1E cytokine-induced death, ATP luminescence, 48 h; percent of positive-control rescue, neutral wells zero. protection from apoptosis, % (concentration not given with the values);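 active means all replicates at 75% or more, or half of them and the mean; inconclusive means half reach 75% but not the mean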;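 further: 0% = cytokine-treated negative control wells and 100% = positive control rescue; higher means more ATP so stronger rescue from cytokine killing; wells of about 40 µL received 100 nL stock; the first replicate is given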
T cruzi repl = inhibitors of intracellular T. cruzi growth, primary screen, luminescence, NIH3T3 host cells | 300,000 tested, 1.4% active | inhibition, % (no concentration beside the values) | T. cruzi beta-gal in NIH3T3, 90 h;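 active means mean inhibition across valid replicates above about 55%, limit read from the data; inconclusive means mean below that limit but half or more replicates reach it; inactive means mean below it, under half of replicates reach it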;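 further: signal also drops with host cell toxicity which is not excluded here; 0% = plate median of DMSO wells and 100% = zero luminescence signal; higher percent means less beta-gal luminescence so fewer parasites; stock transfer was 50 nL into about 50 µL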
Ecoli rRNA inh = reduced GFP signal of wild-type E. coli, primary screen, bacterial rRNA inhibitor project, GFP/RFP fluorescence, OD600, single point; E. coli WT GFP vs humanized-ribosome RFP mutants, 24 h; hits give low values; DMSO median 0, no signal -100; GFP signal change (wild-type ribosome), % (concentration not given with the values); 350,000 tested, 1.6% active;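 active means significant combined selectivity score with lowered wild-type GFP, culture density cut under 30%, mutant RFP and density less affected; inactive means any of these conditions unmet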; further: one replicate is shown; some compounds called inactive have numbers as strong as hits
Ecoli rRNA inh OD600 = recorded beside Ecoli rRNA inh, whose call it bears; OD600 change, %; measured here: OD600 growth;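 optical density of the mix in the first replicate; 0 = DMSO median and -100 = no signal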
Ecoli rRNA inh RFP = second read-out of Ecoli rRNA inh, no call of its own (marks repeat the call); RFP signal change, %; measured here: RFP humanized mutant strains;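 first replicate; 0 = DMSO median and -100 = no signal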
* hit, by the source's call; i = inactive; ? = inconclusive; . = not tested or not shown.

SMILES	FGF22 binding	ALR H2O2 inh	Calb FLC	MLL AF4-AF9 inh	RanGTP-Imp inh	Beta cell apopt	T cruzi repl	Ecoli rRNA inh	Ecoli rRNA inh OD600	Ecoli rRNA inh RFP
CSCCC(NC(=O)c1ccc(Cl)cc1Cl)C(=O)OCC(N)=O (centres undefined)	i	-5	8	3.8	-3.6	-7	-7	-21	-36	-18
O=c1[nH]c2ccccc2nc1/C=C(\O)C(F)F	.	-3	9	.	6.8	-2	-4	.	.	.
Cc1cc(C)c(S(=O)(=O)N(C)CC(=O)NCc2cccnc2)c(C)c1	i	3	20	0.1	2.9	0	-4	1	-5	-0.5
Cc1cc(C(=O)OCC(=O)Nc2cccnc2Cl)c2ccccc2n1	i	2	7	-1.2	2.0	-11	-8	-24	-21	-11
Cc1ccc(CCNC(=O)C2CC(c3cccc(F)c3)=NO2)cc1 (centres undefined)	i	2	17	-0.7	1.3	-5	-5	7	10	1.7
Cc1ccc(S(=O)(=O)NC(=O)Nc2cc(C)on2)cc1	i	2	45	-20	-3.1	-1	4	5	-4	2.0
N#C/C=C/N1CCN(Cc2ccc3c(c2)OCO3)CC1	i	-4	0	-3.1	2.3	-3	13	15	7	-2.3
O=C(Nc1ccc(S(=O)(=O)NCCc2ccccc2)cc1)c1ccc(Br)o1	.	-1	-28	.	-1.3	.	-6	.	.	.
Cc1ccc(N2C(=O)CC(C)(C)CC2=O)cc1Cl	i	-34	-1	0.4	2.6	1	-5	14	12	-1.9
Cc1ccc(S(=O)(=O)NCC(c2ccco2)S(=O)(=O)c2ccccc2)cc1 (centres undefined)	i	-3	0	0.4	-2.6	.	1	0	-7	1.0
CCCc1nc2sc3ccccc3c(=O)c2c(=O)n1Cc1ccc(OC)cc1	i	0	7	0.4	1.4	100*	22	-4	-4	1.5
O=C(Nc1cccc(S(=O)(=O)N2CCOCC2)c1)c1cc2c(s1)CCC2	.	-5	8	.	3.8	-4	13	.	.	.
CC#CC(=O)N1CCCC(C(=O)c2ccc(SC)cc2)C1 (centres undefined)	i	.	7	-1.0	-2.6	-3	8	-3	0	2.4
Cc1ccccc1C(=O)NC(=S)Nc1ccccc1[N+](=O)[O-]	.	0	-16	.	4.6	2	31	.	.	.
COc1ccc(NC(=O)CSc2nc3ccc(Nc4nc(N5CCOCC5)nc(N5CCOCC5)n4)cc3s2)cc1	i	5	3	-12	1.2	.	41	10	7	4.5
CC(Oc1ccc(-c2ccccc2)c(F)c1)c1ccn(S(=O)(=O)c2ccc(Cl)cc2)n1 (centres undefined)	.	-14	3	.	1.3	12	?	.	.	.
Clc1ccc(OCc2nn3c(C4CCCCC4)nnc3s2)cc1	.	-10	0	.	4.0	-4	4	.	.	.
NC(=O)/C=C\C(=O)Nc1cccc(C(F)(F)F)c1	i	14	-10	11	-2.5	-9	31	1	4	-1.0
Cc1ccc(C(C(=O)NC(C)(C)C)N(Cc2ccccc2)C(=O)c2snc(C(N)=O)c2N)o1 (centres undefined)	i	-7	20	2.6	-0.4	-3	21	4	4	0.3
COc1ccc(S(=O)(=O)N(CCc2ccccc2)CC(=O)NCCCO)cc1	.	1	4	.	-3.3	-10	1	.	.	.
O=C(OCC(=O)N1CCN(c2ccccc2)CC1)c1cc(Cl)ccc1[N+](=O)[O-]	i	4	-6	-3.6	-0.3	0	4	-2	-8	-1.0
Cc1cccc(C(=O)c2cnc3ccccc3c2-c2ccccc2)c1	.	.	2	.	1.2	-2	18	.	.	.
COc1ccc(N2CC(C(=O)Nc3cc(C(F)(F)F)ccc3N3CCCC3)CC2=O)c(OC)c1 (centres undefined)	i	-1	-6	1.9	0.1	-2	-4	-17	-18	0.1
CCOc1ccc(-c2nc(C#N)c(NCc3ccc4c(c3)OCO4)o2)cc1	i	3	-1	3.5	-3.0	-3	-6	2	-21	-3.4
CC1(C(=O)OCC(=O)NC(=O)NCc2ccccc2)CC1(Cl)Cl (centres undefined)	i	-7	-2	-1.2	0.2	.	9	-28	-30	-3.5
Following part:
SMILES	FGF22 binding	ALR H2O2 inh	Calb FLC	MLL AF4-AF9 inh	RanGTP-Imp inh	Beta cell apopt	T cruzi repl	Ecoli rRNA inh	Ecoli rRNA inh OD600	Ecoli rRNA inh RFP
Cc1nc(-c2ccc(C(=O)Nc3cccc(F)c3)cc2)cs1	i	-5	-11	-3.9	2.7	6	6	8	7	-0.2
O=c1ccc2cc3c([nH]c4ccc(Br)cc43)oc-2c1O	.	99*	1	.	-11	-8	4	.	.	.
O=C1C(=O)N(Cc2cccnc2)C(c2cccc(O)c2)/C1=C(\O)c1ccc2c(c1)OCCO2 (centres undefined)	i	23	-6	-1.5	-5.7	-12	-23	5	6	-0.3
CCCC(=O)Nc1nnc(Sc2ccc(N(C)C)cc2)s1	.	-7	4	.	0.4	3	-21	.	.	.
O=C(CSc1nccc(=O)[nH]1)Nc1ccc(Br)c(Cl)c1	.	98*	6	.	0.7	0	2	.	.	.
Cc1cccc(C)c1OCC(O)CN1CCN(c2ccccc2)CC1 (centres undefined)	i	49	-11	-1.7	0.8	1	22	-29*	-5.5*	-0.7*
Cc1ccc(S(=O)(=O)N2CCC(C(=O)N3CCC[C@H]3C(=O)NCc3ccco3)CC2)cc1	.	-10	4	.	-4.2	-8	-17	.	.	.
COc1cc(C2C(C(=O)Nc3ccc(F)cc3)=C(C)Nc3nc(CCCO)nn32)cc(OC)c1OC (centres undefined)	i	.	-3	1.0	-7.0	-11	-7	12	10	1.6
Cc1nnc(Sc2cc(NCCO)c([N+](=O)[O-])c3nonc23)s1	i	.	-9	8.8	-0.6	.	14	-58	-80	-33
O=C(NCCOc1ccccc1)C1Nc2ccc(C(F)(F)F)cc2C2c3ccccc3CC12 (centres undefined)	.	-7	-3	.	7.9	-2	-7	.	.	.
COc1ccc2ncc(S(=O)(=O)c3ccccc3)c(N3CCN(c4ccccc4)CC3)c2c1	.	-22	-8	.	3.0	-2	50	.	.	.
COc1ccc(-c2nnc3ccc(SCC(=O)NCC4CCCO4)nn23)cc1 (centres undefined)	.	-4	10	.	2.7	-2	5	.	.	.
COc1ccccc1N1CCN(/N=C(\C)c2ccc(O)cc2)CC1	i	99*	-14	7.8	-0.9	.	-8	11	6	-0.6
CC1(OC(=O)C2CCCC2)C(=O)C=C2C=C(c3ccsc3)N(CCCCO)C=C2C1=O (centres undefined)	i	.	25	-3.0	-0.6	0	1	-6	-8	2.1
Cc1ccc(OCCOCCOc2cccc3cccnc23)c(Br)c1	.	-5	-2	.	2.6	-2	28	.	.	.
COC(=O)C1C(=O)C=C(Nc2ccc(F)cc2F)CC1c1ccccc1 (centres undefined)	i	.	5	-3.7	3.8	2	-10	-9	-19	6.9
Cc1ccc([N+](=O)[O-])cc1NC(=O)CSc1nncn1-c1ccccn1	i	-7	-18	-2.6	5.5	-4	5	9	6	-1.9
Cc1ccc(-c2cc(C(F)(F)F)c(C#N)c(SCC(=O)O)n2)cc1	i	5	33	-2.1	0.7	8	1	-50	-73	-24
O=C(NCCCSc1ccccc1)c1ccc(=O)[nH]c1	i	-10	10	-4.0	2.5	3	1	-2	5	-0.4
O=C(Nc1ccn(Cc2ccccc2F)n1)c1ccc(COc2cc(Cl)ccc2Cl)o1	.	-6	14	.	2.5	-2	.	.	.	.
O=C(Nc1nc2c(ccc3ccccc32)s1)c1ccco1	.	-48	66	.	-0.6	2	30	.	.	.
Cc1nn(-c2ccccc2)c(C)c1C(=O)NCc1cccs1	.	8	1	.	-1.7	-12	-23	.	.	.
CN(CC1COc2ccccc2O1)C(=O)CSc1ncccn1 (centres undefined)	i	-2	.	-3.9	.	2	.	-4	0	-1.6
CC1(C)C2CCC(C2)C1(C)NC(=O)CNC1CCCCC1 (centres undefined)	i	-5	-4	5.2	3.0	-2	10	7	0	-4.0
CCOC(=O)CCC(NC(=O)c1ccccc1C(=O)NC(CCC(=O)OCC)C(=O)OCC)C(=O)OCC (centres undefined)	i	-1	1	-1.8	3.9	-4	-7	5	7	-3.9
Remaining list, next part.
SMILES	FGF22 binding	ALR H2O2 inh	Calb FLC	MLL AF4-AF9 inh	RanGTP-Imp inh	Beta cell apopt	T cruzi repl	Ecoli rRNA inh	Ecoli rRNA inh OD600	Ecoli rRNA inh RFP
COc1ccc(Cl)cc1NC(=O)C[n+]1cccc(C)c1	i	-13	-3	-1.2	4.7	3	12	9	-1	0.4
Cc1ccc(S(=O)(=O)N2CCCC2C(=O)NC2=NCCS2)cc1 (centres undefined)	.	35	4	.	-0.3	0	4	.	.	.
CCOc1ccc(NC(=O)CCNS(=O)(=O)c2cccc3nsnc23)cc1	i	.	-10	-7.4	-0.9	-6	2	-18	-12	2.6
CN(Cc1nc(C(c2ccccc2)c2ccccc2)no1)CC1COCCO1 (centres undefined)	i	-4	-9	0.9	-0.1	.	10	-2	5	0.8
CC(C)=CCC/C(C)=C/CNC(=O)CC1C[C@H](C(=O)N2CCCCC2)[C@@]2(C)c3[nH]c4ccccc4c3CCN2C1=O (some centres undefined)	i	.	.	-1.9	.	-1	.	11	24	-1.2
Cc1ccc(C(=O)NCC(=O)NC2CCCCCC2)cc1	i	-9	-40	2.1	2.8	-3	-14	8	4	-0.9
COc1cc(/C=N/n2c(C3CCCCC3)n[nH]c2=S)ccc1O	i	98*	9	0.7	2.0	-6	-6	6	1	1.2
COc1ccc(OC)c(S(=O)(=O)N2CCCCCC2)c1	.	-38	-4	.	4.7	-12	-1	.	.	.
CC(NC(=O)c1cc2cc(Br)ccc2oc1=N)c1ccccc1 (centres undefined)	i	-9	-1	-1.1	?	-4	3	2	-1	0.2
COc1ccccc1/C=C/c1nc(C#N)c(N(C)C)o1	i	1	10	2.0	28*	-118	3	-1	-7	-3.6
COc1ccc(OCCCC(=O)NCc2ccco2)cc1	i	-1	4	0.5	3.7	-3	-11	1	11	-0.1
O=C(NC(=S)Nc1ccc(S(=O)(=O)N2CCOCC2)cc1)c1ccccc1[N+](=O)[O-]	i	-1	20	-0.3	?	.	-1	12	9	-3.0
CCCCOn1c(C)c(C(=O)OCC)c2c3no[n+]([O-])c3ccc21	.	-5	7	.	-2.9	.	8	.	.	.
COC(=O)c1ccc(C(=O)NC(=S)Nc2nc3c(s2)CC(C)CC3)cc1 (centres undefined)	.	.	2	.	0.9	-9	-11	.	.	.
CS(=O)(=O)N(CC(=O)NCc1ccco1)c1ccc(Cl)c(C(F)(F)F)c1	.	-5	-1	.	-2.6	-1	-13	.	.	.

RanGTP-Imp inh, what is marked active above.
SMILES | FGF22 binding | ALR H2O2 inh | MLL AF4-AF9 inh | RanGTP-Imp inh | Ecoli rRNA inh | Ecoli rRNA inh OD600 | Ecoli rRNA inh RFP
COc1ccccc1/C=C/c1nc(C#N)c(N(C)C)o1 | i | 1 | 2.0 | 28* | -1 | -7 | -3.6

Screening data: PubChem BioAssay, Broad Institute

Not all compounds are listed; the hit share may differ from the screen's.
